NPYLR7 agonist = activates Aedes aegypti NPYLR7 receptor; HEK293T NPYLR7/Galpha15, GCaMP6s calcium fluorescence; activation, % at 10 µM; 0.15% of 270,000 active; in the data active = activation above about 40%;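 note: 0% = vehicle and 100% = reference agonist at the receptor; some compounds past the cut are filed as inactive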
NPYLR7 agonist max-min = recorded beside NPYLR7 agonist, whose call it bears; activation, %; measured here: Max-Min RFU normalised activation; some inactives read as strong as hits;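 span of the calcium signal over five minutes; 0% = vehicle and 100% = native peptide agonist; compound fluorescence can raise it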
* = called active by the depositor; & = joins results of further samples.

SMILES	NPYLR7 agonist	NPYLR7 agonist max-min
O=C1NCCCC[C@]12C[C@H](CO)[C@H](c1ccccc1)N2S(=O)(=O)c1ccccc1	5	15
COCCOC(=O)C1=C(C)NC(C)=C(C(=O)OCCOC)C1c1cn(-c2ccccc2)nc1-c1ccccc1	-7	-12
CC(=O)Nc1ccc(N=C2NC(=O)/C(=C\c3ccc(C)o3)S2)cc1	-3	4
Brc1ccc(-c2csc(-c3ccccc3)n2)cc1	-1	-8
O=C(NC1CCN(c2ccccc2C(=O)NCCc2ccccc2)CC1)c1ccccc1Cl	14	10
NC1CC(=O)N(Cc2cccc3ccccc23)C1 (stereo unspecified)	4	1
Cc1c(C)n2c3c(=O)n(Cc4ccc(F)cc4)c(=O)n(C)c3nc2n1Cc1ccc(F)cc1	-1	1
COc1ccc(CN2C3CCC2CC(NS(=O)(=O)c2c(C)c(C)cc(C)c2C)C3)c(OC)c1 (stereo unspecified)	19	14
CC1(C2CCN(C(=O)Nc3ccc(OCC(F)(F)F)nc3)CC2)OCCO1	-6	-10
O=c1oc2cc(Cl)ccc2n1CN1CCCC1c1cccs1 (stereo unspecified)	2	-1
COCCOc1nc(-c2ccc(F)cc2)n(-c2ccc(NC(=O)c3cccs3)cc2)n1	-7	10
Cc1nc(CNC(=O)c2ccccc2-n2cncn2)nc2c1CCCC2	11	7
Cc1nnc(SCc2cc(=O)[nH]c(N3CCN(C)CC3)n2)s1	0	-3
CC1CSc2ccc(Br)cc2C1=O (stereo unspecified)	10	7
Cc1ccccc1N1CCN(C2CCCN(C(=O)c3cccc(Br)c3)C2)CC1 (stereo unspecified)	-3	0
COc1ccccc1-c1cn2c(NC(=O)C(C)c3ccccc3)cnc2cn1 (stereo unspecified)	-4	-9
COc1ccc(-c2nc(CN3CCN(Cn4nc(-c5ccccc5)n(C)c4=S)CC3)cs2)cc1	-1	-2
C[C@@H](NC(=O)c1ccc(CSc2nnc3ccccn23)cc1)C(C)(C)C	2	0
CCCc1c(C(=O)NCc2ccccn2)cnn1-c1ccccc1Cl	-2	5
CCN(CC1CCCN(CCc2cccc(OC)c2)C1)C(=O)c1ccc(C)s1 (stereo unspecified)	14	-1
CC(=NNc1nc2ccccc2s1)c1ccc[nH]1	0	-3
Cc1ccccc1CSCC(=O)N1c2ccccc2NC(=O)C1(C)C	7	5
Cc1ccc2cc(C(=O)N3CCS(=O)(=O)c4c3c(C)nn4C)[nH]c2c1	3	1
COC[C@H]1C[C@H]2C[C@@H](Oc3ccccn3)[C@H](N3CCN(CC(=O)NC(C)C)CC3)[C@]2(O)CO1	2	6
Cc1ccc(S(=O)(=O)Nc2ccc(Nc3ccc(-n4cccn4)nn3)cc2)cc1C	-4	-11
CCOC(=O)c1cc(-c2ccc(N3CCN(C(=O)Cc4cccs4)CC3)cc2)n(-c2ccccn2)n1	25	13
Cc1onc(-c2ccccc2Cl)c1C(=O)N(C)CCc1ccccn1	-6	-12
COc1ccc(-n2c3c(c(=S)[nH]c2=O)CCC3)cc1OC	1	-3
O=C1NC(=O)C(=Cc2cccs2)S1	2	3
COc1ccccc1N=Nc1c(-c2ccc([N+](=O)[O-])cc2)[nH]n(-c2ccccc2)c1=O	-4	-9
Cn1c(=O)n(Cc2cccc3ccccc23)c(=O)c2c1nc1n2CCN1c1ccccc1	-4	-5
COc1ccc(CN2CCN(Cc3cccc4ncccc34)CC2CCO)c(F)c1 (stereo unspecified)	19&14	13&2
NC(=S)CC(=O)N1CCOCC1	8	8
CCc1ccc(-c2ccc(NC3CCCC(C)C3C)nn2)cc1S(N)(=O)=O (stereo unspecified)	-9	-15
COc1cc(CNC(=O)CN2CCCc3ccccc32)cc(OC)c1OC	0	-5
CC(C)(C)C1CCCCC1NCCn1cccn1 (stereo unspecified)	-3	-6
Cc1cc(C(=O)Cn2cc(C(F)(F)F)cc(Cl)c2=O)c(C)n1Cc1ccco1	5	6
CC(C(=O)N1CCN(C(=O)c2ccc3ccccc3c2)CC1)N1CCc2sccc2C1c1ccccc1 (stereo unspecified)	6	-3
CCOC(=O)N1CCN(C(=O)CSc2nc(Cl)cc(N3CCN(C(=O)c4ccc(F)cc4)C(C)C3)n2)CC1 (stereo unspecified)	-2	4
O=C(c1cc2sccc2[nH]1)N1CCCC(Nc2ccc3c(c2)OCO3)C1 (stereo unspecified)	-2	-4
CCS(=O)(=O)c1ncc(CN(C)C)n1Cc1ccccc1	4	1
CC(=O)C(C)n1c(CN2CCN(c3cccc(Cl)c3)CC2)nc2c1c(=O)[nH]c(=O)n2C (stereo unspecified)	9	5
Cc1ccccc1N1CCN(c2nc(N(C)C)nc3c2CCNC3)CC1	2	-4
Cc1ccc(O)c(CN2CCCn3cccc3C2c2cc(F)ccc2F)c1 (stereo unspecified)	0	13
CC(C)c1ccc(S(=O)(=O)N2CC(C(=O)O)Oc3ccccc32)cc1 (stereo unspecified)	-1	-2
CC1COCCN1C(=O)c1ccc2c(c1)Cc1ccccc1-2 (stereo unspecified)	7	5
CC(=O)c1ccc(NC(=O)CSc2nc(=O)n(CCN3CCOCC3)c3c2CCC3)cc1	-6	-9
CC(C)N(Cc1nc(C(=O)O)cs1)C(=O)Nc1ccccc1F	-6	-16
C=CCNc1nccnc1-c1cccc(O)c1	-9	-10
O=C(c1ccc(Nc2nccc(-c3cc4ccccc4s3)n2)cc1)N1CCC(N2CCCC2)CC1	-11&-4	-15&-8
Fc1ccc(NN=C2c3ccccc3-c3ccccc32)cc1	0	-1
Cc1cccc(Cl)c1C(=O)NC1CCc2[nH]c3ccc(Br)cc3c2C1 (stereo unspecified)	25	11
N#CC1C(=N)OC2=C(C(=O)CCC2)C1c1ccccc1C(F)(F)F (stereo unspecified)	1	-4
CCOC(=O)c1ccc(S(=O)(=O)N(CC)C(C)C)cc1	5	1
Cc1cccc(CC(=O)NC2CCCN(CC3CCCCC3)C2)c1 (stereo unspecified)	12	2
COCCNS(=O)(=O)c1ccc(OC)c(N2CCN(C(=O)c3cc(OC)c(OC)c(OC)c3)CC2)c1	30	19
Cn1nnnc1SCCCNC/C=C/c1ccccc1	-10	-12
Cc1ccc(C2=NN(c3nc(-c4ccccc4)c4cc(Cl)ccc4n3)C(c3ccccc3F)C2)cc1 (stereo unspecified)	-6	-2
O=C(NCc1nnc2ccc(C(F)(F)F)cn12)C1CCC1	2	-1
COc1cc(-c2ccc(SCC(=O)NC3CCCC3)nn2)cc(OC)c1OC	6	2

(list continues)
SMILES	NPYLR7 agonist	NPYLR7 agonist max-min
Cc1ccccc1C1C(C(=O)Nc2ccccc2)C(C)Nc2ncnn21 (stereo unspecified)	-2	-3
COc1cc(NC(=O)CCC2CCCN(Cc3cnn(-c4ccccc4)c3)C2)cc(OC)c1 (stereo unspecified)	8	5
Cn1ncc2c1CCCC2NC(=O)c1ccccc1OCc1cscn1 (stereo unspecified)	0	65
Nc1c([Se]c2ccccc2)cc([Se]c2ccccc2)c2c1C(=O)c1ccccc1C2=O	-10	0
Cn1ccsc1=NC(=O)Cc1coc2ccc3ccccc3c12	3	7
N#CC1(NC(=O)CSc2nnc3n2CCCCC3)CCCCC1	1	3
CCCCn1c(-c2ccccc2)cn2c3c(=O)n(C)c(=O)n(C)c3nc12	5	1
COc1ccc(N2C(=O)CCC(C(=O)N(C)C)C2c2ccc(OC)c(OC)c2)cc1 (stereo unspecified)	3	-3
CC(=O)COc1ccc2c(c1)O/C(=C\c1ccccc1F)C2=O	-7	-7
Cc1nc(-c2cccc(F)c2)nc(N2CCN(C(=O)c3cccc(Br)c3)CC2)c1C	6	12
Fc1cnc(N2CCN(Cc3cc(CN4CCCC4)cs3)CC2)nc1	1	0
CCOc1ccc(C2SC(C)C(=O)N2CC2CC2)cc1 (stereo unspecified)	15	24
N#CCCCOc1cccn2c1nc(=O)c1cc(Cl)ccc12	9	6
C/C(=C/C(=O)N1CCOCC1C#N)c1cccc(Cl)c1 (stereo unspecified)	6	1
CCCOC(=O)c1ccc(-c2n[nH]c(=O)c3ccccc23)cc1	4	2
COc1ccc(C2CC(=O)N(CC(=O)O)CCN2CC2CC2)cc1 (stereo unspecified)	-5	-4
CC1CN(Cc2nc3c(c(=O)n(C)c(=O)n3C)n2Cc2ccc(F)cc2)CC(C)O1 (stereo unspecified)	7	2
CC(SCC(=O)N(CCC#N)CCC#N)c1ccc(F)cc1 (stereo unspecified)	2	-1
Cc1nn(CC(=O)NCC(F)(F)F)c(C)c1S(=O)(=O)N(C)C	1	7
C=CCN(Cc1nccn1Cc1ccc(Cl)cc1Cl)C(=O)c1ccco1	17	14
O=C(O)/C=C/c1c[nH]c(=O)[nH]c1=O	0	0
CCCCC(=O)Nc1nnc(C)s1	-2	-3
Cc1ccc(Cn2c(=O)c3c(nc4n3CC(C)CN4Cc3ccccc3)n(C)c2=O)cc1 (stereo unspecified)	7	4
Cc1cc(C)cc(NC(=O)N2CC(=O)N3CCc4cc(C)ccc4C3C2)c1 (stereo unspecified)	-3	9
CC(=O)N1CCC(Cn2ccnc2-c2cc3ccccc3s2)CC1	6	4
COCCN(CC(=O)Nc1cc(-c2ccccc2)nn1-c1ccccc1)C(=O)c1cccc(Br)c1	19	19
O=C(c1ccc(N2CCC(NCc3cnn(Cc4ccccc4)c3)CC2)cc1)N1CCOCC1	2	-4
O=C(NC1CCN(c2ccccc2C(=O)NCC2CCCO2)CC1)c1cc(F)cc(F)c1 (stereo unspecified)	6	24
CCc1nc(SCC(=O)N(C)C2=CCCC2)n[nH]1	6	2
O=C(CN1CCCc2cccc(F)c21)Nc1cccc(F)c1	0	0

An excerpt of these results, with two lines to a compound.
Values run as follows: NPYLR7 agonist	NPYLR7 agonist max-min
- O=C(O)/C=C/c1c[nH]c(=O)[nH]c1=O
→ 0	0
- CCCCC(=O)Nc1nnc(C)s1
→ -2	-3

(cont.)
SMILES	NPYLR7 agonist	NPYLR7 agonist max-min
c1ccc(CCC2CN(Cc3ccccc3-n3cccn3)CCO2)cc1 (stereo unspecified)	1	0
Cc1ccc([N+](=O)[O-])cc1-c1ccc(/C=C2\SC(=Nc3ccccc3)NC2=O)o1	3	-3
COCOc1cccc(CN2CCC2(C)C(=O)NC2CCN(C)CC2)c1 (stereo unspecified)	6	3
CC1Oc2ccc(-c3cccc(F)c3)cc2N(c2cccc(O)c2)C1=O (stereo unspecified)	3	2
OCC1(Cc2ccccc2F)CCCN(c2noc(-c3ccccc3)n2)C1 (stereo unspecified)	1	0
O=C(Nc1cc(C2CCCC2)[nH]n1)C(O)c1ccccc1 (stereo unspecified)	-4	-7
Cc1cc(C)n(CCC(=O)OCC(=O)NC2CC2)n1	4	3
C=CCn1c(=S)[nH]c2sc3c(c2c1=O)CCCC3	-11	-17
COC(=O)c1cn(Cc2ccccc2F)nc1S(=O)(=O)N1CCCCC1	-10	-12
COc1cccc(-n2nc(C(=O)NCc3ccccn3)c(=O)n(Cc3ccc(F)cc3)c2=O)c1	13	16
CCN(CC)c1ccc(C(=O)n2nc(C(F)(F)F)nc2N)cn1	-11	-17
COc1cc(NS(=O)(=O)c2ccc(C)c([N+](=O)[O-])c2)cc(OC)c1OC	14	13
CCCCCCCC(=O)N1CCN(c2nc(C3CC3)nc3sc(C)c(C)c23)CC1	-2	4
CCCc1nc(CSc2nnc(NC(C)(C)C)s2)cs1	-16	-16
Nc1nonc1-c1noc(-c2ccc(Br)cc2)n1	7	1

14 compounds out of the list, arranged by SMILES length, smallest number first.
SMILES	NPYLR7 agonist	NPYLR7 agonist max-min
Nc1nonc1-c1noc(-c2ccc(Br)cc2)n1	7	1
CCCc1nc(CSc2nnc(NC(C)(C)C)s2)cs1	-16	-16
CCc1nc(SCC(=O)N(C)C2=CCCC2)n[nH]1	6	2
C=CCn1c(=S)[nH]c2sc3c(c2c1=O)CCCC3	-11	-17
O=C(CN1CCCc2cccc(F)c21)Nc1cccc(F)c1	0	0
O=C(Nc1cc(C2CCCC2)[nH]n1)C(O)c1ccccc1 (stereo unspecified)	-4	-7
c1ccc(CCC2CN(Cc3ccccc3-n3cccn3)CCO2)cc1 (stereo unspecified)	1	0
CCN(CC)c1ccc(C(=O)n2nc(C(F)(F)F)nc2N)cn1	-11	-17
COCOc1cccc(CN2CCC2(C)C(=O)NC2CCN(C)CC2)c1 (stereo unspecified)	6	3
OCC1(Cc2ccccc2F)CCCN(c2noc(-c3ccccc3)n2)C1 (stereo unspecified)	1	0
COC(=O)c1cn(Cc2ccccc2F)nc1S(=O)(=O)N1CCCCC1	-10	-12
CCCCCCCC(=O)N1CCN(c2nc(C3CC3)nc3sc(C)c(C)c23)CC1	-2	4
COc1cc(NS(=O)(=O)c2ccc(C)c([N+](=O)[O-])c2)cc(OC)c1OC	14	13
Cc1ccc([N+](=O)[O-])cc1-c1ccc(/C=C2\SC(=Nc3ccccc3)NC2=O)o1	3	-3

(continued)
SMILES	NPYLR7 agonist	NPYLR7 agonist max-min
CCN1CCN(c2c(Cl)cccc2NC(=O)C2=NNC(=O)CC2)CC1	1	2
Cc1nc2ccccn2c(=O)c1NC(=O)c1cccc(Cl)c1	3	0
CC(=O)NC(CC(=O)N1CCCc2cc(C)ccc21)c1ccccc1 (stereo unspecified)	0	-1
CN1CCC(Cc2noc(-c3cccc(Cn4cccn4)c3)n2)CC1	1	0
COc1ccc(C(=O)Cn2cnc3c(cnn3C3CCS(=O)(=O)C3)c2=O)cc1 (stereo unspecified)	4	-2
CCCc1ccc(OCC(=O)NNC(=O)c2cccc(C)c2)cc1	1	-4
COc1cccc(C(C)Sc2n[nH]c(-c3ccccc3F)n2)c1 (stereo unspecified)	7	6
c1ccc2c(CSCCNC3=NCCN3)cccc2c1	1	8
Cn1ncc2c(=O)n(CC(=O)NCCc3ccccc3F)cnc21	2	0
O=C(Nc1ccccc1C(F)(F)F)N1CCC1c1ccccc1F (stereo unspecified)	3	0
Cc1cc(NC(=O)c2ccc(S(=O)(=O)N(Cc3ccco3)C3CC3)o2)no1	-6	-10
CCS(=O)(=O)Oc1ccccc1CN(Cc1ccc(F)cc1)C(=O)c1ccco1	19	18

Screening data from PubChem.

These rows are one share of the data, so the mix of outcomes need not match the whole.
